Screening results as filed in PubChem.
PV pol inh – poliovirus RdRp elongation inhibitors, primary screen, biochemical, fluorescence polarization, total intensity | poliovirus polymerase elongation; stronger effect = lower value | % elongation, % (compound at 16.7 µg/mL) | 150,000 tested, 0.66% active | AID 588519, 2011; in the data active = % elongation below about 90%; note: some results filed as inactive read as strong as hits
Target sequence (P03300 1749-2209 limits assumed): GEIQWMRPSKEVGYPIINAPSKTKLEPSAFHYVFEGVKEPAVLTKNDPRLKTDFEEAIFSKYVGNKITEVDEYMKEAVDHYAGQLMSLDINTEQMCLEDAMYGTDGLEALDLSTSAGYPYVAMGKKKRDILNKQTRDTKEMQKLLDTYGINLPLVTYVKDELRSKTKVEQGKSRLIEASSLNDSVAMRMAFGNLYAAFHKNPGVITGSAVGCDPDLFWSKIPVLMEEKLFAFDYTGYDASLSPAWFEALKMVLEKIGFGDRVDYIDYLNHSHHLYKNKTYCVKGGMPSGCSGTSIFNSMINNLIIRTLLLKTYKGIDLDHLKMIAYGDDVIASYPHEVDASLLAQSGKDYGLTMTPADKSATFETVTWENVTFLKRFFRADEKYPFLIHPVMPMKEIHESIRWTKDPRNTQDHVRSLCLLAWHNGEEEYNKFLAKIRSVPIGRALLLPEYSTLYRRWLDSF
PV pol inh intensity – recorded beside PV pol inh, whose call it bears; % elongation; measured here: total intensity read-out; formula for this scale not given here;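 total fluorescence in place of polarization; lower means less elongation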
Numbers without * were called inactive.

#1 COc1ccc(C(=O)Nc2c(C(=O)c3ccc(F)cc3)oc3ccccc23)cc1
#2 Cn1c(=O)c2c(c3ccccc31)OC(=O)CC2c1ccc(C(F)(F)F)cc1 (configuration not stated)
#3 CCC(C(=O)Nc1cc(Cl)ccc1OC)n1nc(-c2ccccc2)ccc1=O (configuration not stated)
#4 CCOCCc1nn2c(=O)cc(COC(=O)c3ccc(NC(=O)c4ccc(F)cc4)cc3)nc2s1
#5 COc1ccc(NC(=O)c2sc3nc4c(cc3c2N)CN(Cc2ccccc2)CC4)c(OC)c1
#6 COc1cc2c(cc1OC)C(COc1ccccc1OC)N(C(=O)COc1ccc(Cl)cc1)CC2 (configuration not stated)

screen / no.	1	2	3	4	5	6
PV pol inh	107	105	100	110	107	108
PV pol inh intensity	109	104	105	110	112	116

#7 CC1Cc2cc(S(=O)(=O)NCCc3ccccc3)ccc2N1C(=O)C1CCC1 (configuration not stated)
#8 O=C(Cn1c(=O)oc2cc(Cl)ccc21)Nc1cccc(C(F)(F)F)c1
#9 O=c1cc(-c2ccccc2)nc(SCc2nc(-c3ccc(C(F)(F)F)cc3)no2)[nH]1
#10 O=C(Nc1ccc(F)cc1F)c1ccc(-c2ccccc2)s1
#11 COc1ccccc1NC(=O)CSC1=Nc2ccccc2C2=NC(CC(=O)NCCc3ccccc3)C(=O)N12 (configuration not stated)
#12 CCN1CCc2nc3sc(C(=O)Nc4ccccc4OC(F)(F)F)c(N)c3cc2C1

screen / no.	7	8	9	10	11	12
PV pol inh	107	104	104	102	106	110
PV pol inh intensity	104	93	102	107	112	125

#13 Cc1ccc(Cn2c(C)c3cnn(CC(=O)O)c(=O)c3c2C)cc1
#14 CCCSc1ncc(Cl)c(C(=O)Nc2sc3c(c2C(=O)OC)CCCC3)n1
#15 Cc1ccc(-n2nc(C)c3c(C)cc(=O)n(CC(=O)Nc4ccc(Br)cc4F)c32)cc1
#16 CCOc1ccc(-c2nnc(SCC(=O)NCc3ccccc3Cl)o2)cc1
#17 O=C(Nc1ccc(F)cc1Cl)n1ncc2cc(Cl)ccc21
#18 COc1ccc(Cn2c(=O)c3ccccc3n3c(-c4cccc(OC)c4OC)nnc23)cc1

screen / no.	13	14	15	16	17	18
PV pol inh	110	105	106	108	100	110
PV pol inh intensity	114	102	104	115	112	106

#19 CCOc1ccc(-c2cc(CCCC(=O)NCCc3ccc(OCC)c(OCC)c3)no2)cc1
#20 COc1cccc(CNC(=O)c2cc3c(s2)-c2c(C)cccc2OC3)c1
#21 Clc1cccc(Nc2ncnc3c2nc2n3CCCCC2)c1
#22 O=C(Cn1c(=O)n(CCCS(=O)(=O)C2CCCCC2)c(=O)c2ccccc21)Nc1ccccc1F
#23 O=C(C1CCC(CNS(=O)(=O)c2ccc(Br)s2)CC1)N1CCN(c2ccccc2Cl)CC1 (configuration not stated)
#24 CCOC(=O)c1ccccc1NC(=O)Nc1cc2c(cc1N1CCCCC1)n(C)c(=O)n2C

screen / no.	19	20	21	22	23	24
PV pol inh	102	103	101	107	108	110
PV pol inh intensity	105	112	104	109	109	110

Filtered by structure: the compounds so far containing bromine.
#15 Cc1ccc(-n2nc(C)c3c(C)cc(=O)n(CC(=O)Nc4ccc(Br)cc4F)c32)cc1
#23 O=C(C1CCC(CNS(=O)(=O)c2ccc(Br)s2)CC1)N1CCN(c2ccccc2Cl)CC1 (configuration not stated)

screen / no.	15	23
PV pol inh	106	108
PV pol inh intensity	104	109

(next part)
#25 O=C(Cc1ccccc1)Nc1nnc2n1CCS2
#26 CCOC(=O)C1CCN(C(=O)c2cnn(-c3ccc(F)cc3)c2-n2cccc2)CC1
#27 CCn1cc2nc(SCc3ccccc3Cl)n(CCc3ccccc3)c(=O)c2n1
#28 Cc1ccc(NC(=O)CSc2nc(-c3cccs3)cc(C(F)(F)F)n2)cc1C
#29 COc1ccc(/C=C(\C#N)c2nc(-c3ccc(Cl)c(Cl)c3)cs2)cc1OC
#30 CCOc1ccccc1C(=O)Nc1ccc(S(=O)(=O)Nc2onc(C)c2C)cc1

screen / no.	25	26	27	28	29	30
PV pol inh	116	103	101	102	104	102
PV pol inh intensity	116	107	104	95	107	102

#31 O=C(NCCc1ccccc1)c1c[nH]c2ccc(S(=O)(=O)Nc3ccc(F)cc3F)cc2c1=O
#32 Nc1nnc2c(n1)[nH]c1ccccc12
#33 N#Cc1ccccc1Cn1c(=O)n(Cc2ccc(C(=O)NC3CCN(Cc4ccccc4)CC3)cc2)c(=O)c2ccccc21
#34 CCN(CCCNC(=O)c1cc2c(=O)n(CC)c3ccccc3c2s1)c1cccc(C)c1
#35 CC(=O)Nc1nonc1-c1nnc(SCc2ccc(C)cc2)n1C
#36 CCc1ccc(Oc2c(C(F)(F)F)oc3c(CN4CCN(C)CC4)c(O)ccc3c2=O)cc1

screen / no.	31	32	33	34	35	36
PV pol inh	104	107	106	112	105	106
PV pol inh intensity	106	109	108	110	103	106

#37 Cc1ccc(S(=O)(=O)n2nc(C)c(S(=O)(=O)N3CCCCC3)c2C)cc1
#38 COc1ccc(C(=O)c2cn(Cc3ccc(F)cc3)c3c(F)cc(F)cc3c2=O)cc1
#39 CCC1CCCCN1CCCNC(=O)c1cn(CC)c2ccc(S(=O)(=O)N(C)C3CCCCC3)cc2c1=O (configuration not stated)
#40 Cc1cccc(-c2nnc(SCC(=O)Nc3ccc(C)c(C)c3)o2)c1
#41 O=C(c1ccc2c(c1)N(Cc1cccc(Cl)c1)C(=O)c1ccccc1S2=O)N1CCC(Cc2ccccc2)CC1 (configuration not stated)
#42 CCOc1ccc(CCNS(=O)(=O)c2cc(Br)cc3c2N(C(C)=O)CC3)cc1OCC

screen / no.	37	38	39	40	41	42
PV pol inh	105	109	107	108	103	105
PV pol inh intensity	99	108	111	103	98	108

#43 COCCCn1c(=O)c2sccc2n2c(CCCC(=O)NCc3ccc(F)cc3)nnc12
#44 Cc1cccc(NC(=O)N2CCC(CN3CCCCCC3)CC2)c1C
#45 CC(Nc1oc(-c2ccc(COc3ccc(Cl)cc3)o2)nc1C#N)c1ccccc1 (configuration not stated)
#46 CCOC(=O)c1ccccc1NS(=O)(=O)c1ccc(N2CCCCS2(=O)=O)cc1
#47 Cc1cccc(N2C(=O)CC(c3ccc(F)cc3)C3=C2COC3=O)c1 (configuration not stated)
#48 CCOC(=O)c1[nH]c2ccccc2c1NC(=O)c1cc(OCC)c(OCC)c(OCC)c1

screen / no.	43	44	45	46	47	48
PV pol inh	124	107	109	111	108	107
PV pol inh intensity	111	109	107	110	111	104

#49 Cc1ccc(-c2noc(C(C)NC(=O)c3ccco3)n2)cc1 (configuration not stated)
#50 COc1ccc(-n2nc(C(=O)N3CCCC(C)C3)c3c4ccccc4n(C)c3c2=O)cc1Cl (configuration not stated)
#51 CC(=O)Nc1c(C)nn(-c2ccccc2)c1N1CCC(C(=O)NCc2cccc(Cl)c2)CC1
#52 O=C(Cn1c(=O)n(Cc2ccccc2)c(=O)c2sc3ccccc3c21)Nc1ccc(F)cc1
#53 O=C(CSC1=Nc2ccccc2N=C(c2ccc(F)cc2)C1)NCc1ccccc1
#54 Cc1cccc(C(=O)OCc2cc(=O)n3nc(-c4cccs4)sc3n2)c1

screen / no.	49	50	51	52	53	54
PV pol inh	107	109	113	103	105	99
PV pol inh intensity	110	111	114	105	102	106

#55 CCOC(=O)c1sc2ccccc2c1S(=O)(=O)Nc1cccc(C(F)(F)F)c1
#56 COc1ccc(C2(N3CCN(c4cc(C)ccc4C)CC3)C(=O)c3ccccc3C2=O)cc1
#57 Cc1ccc(C)c(NC(=O)c2nc(S(=O)(=O)Cc3ccc(F)cc3)ncc2Cl)c1
#58 CCCOc1ccc(NC(=O)CC2C(=O)N(c3ccc(F)cc3)C(=O)N2CC(C)C)cc1 (configuration not stated)
#59 Cc1ccccc1Cn1nnc2c(=O)[nH]c(C3CCCN(C(=O)c4ccc(C(C)(C)C)cc4)C3)nc21 (configuration not stated)
#60 Cc1ccc(C)c(NC(=O)CSc2nnc(C)n3c2cc2occc23)c1

screen / no.	55	56	57	58	59	60
PV pol inh	102	103	110	107	108	109
PV pol inh intensity	109	109	104	114	109	111

#61 Cc1ccc(C)c(NC(=O)Cn2ccn(-c3ccc(F)cc3)c(=O)c2=O)c1
#62 COc1cc(C2CC(=O)N(c3ccc(C)c(Cl)c3)C3=C2C(=O)OC3)cc(OC)c1OC (configuration not stated)
#63 COc1cccc(NC(=O)c2oc3ccccc3c2NC(=O)Cc2cccc(C)c2)c1
#64 O=C(CSc1nc2ccccc2nc1Cc1ccc(Cl)cc1)N1CCc2ccccc21
#65 COc1ccc(CCCc2nnc(SCC(=O)Nc3ccc(Cl)cc3)o2)cc1
#66 COc1ccccc1NC(=O)c1sc2cccc(Cl)c2c1Cl

screen / no.	61	62	63	64	65	66
PV pol inh	113	103	106	104	107	103
PV pol inh intensity	102	102	109	105	112	106

#67 CCCC12CN3CC(C)(CN(C1)C3c1ccc(OCc3ccccc3)cc1)C2=O (configuration not stated)
#68 COc1ccccc1OCc1nc(C#N)c(NCc2ccc(C)cc2)o1
#69 Cc1cccc(CNC(=O)c2ccc(NC(=O)N3CCSc4ccccc43)cc2)c1
#70 Cc1cccc(-n2c(=O)c3c(c4cc(C)ccc4n3C)n(CC(=O)NCC3CCCO3)c2=O)c1 (configuration not stated)
#71 COc1ccccc1CNC(=O)C(C)n1ccc2cc(S(=O)(=O)N3CCCC3)ccc21 (configuration not stated)
#72 O=C(CN1C(=O)COc2ccc(S(=O)(=O)N3CCCCCC3)cc21)N1CCN(c2ccccc2F)CC1

screen / no.	67	68	69	70	71	72
PV pol inh	100	97	111	106	109	107
PV pol inh intensity	105	101	114	112	115	113

#73 COc1cc(NC(=O)CCc2nc(-c3cccs3)no2)cc(OC)c1OC
#74 Cc1ccc(C)c(N2CCN(S(=O)(=O)c3cc(-c4cc(C)no4)ccc3C)CC2)c1
#75 CCOc1ccccc1N1CC(c2nc3ccccc3n2CCOc2ccccc2OC)CC1=O (configuration not stated)
#76 CCOC(=O)c1ccc(N2CCN(c3ccc(F)cc3)CC2)c(NC(=O)Nc2ccc(CC)cc2)c1
#77 Cc1ccc(C(C)(C)C)c(OCC(=O)NCCc2nc3ccccc3[nH]2)c1
#78 CCOc1ccc(CNC(=O)c2cnc3sc(N(CC)CC)nn3c2=O)cc1

screen / no.	73	74	75	76	77	78
PV pol inh	116	103	104	105	104	106
PV pol inh intensity	114	107	103	100	114	107

#79 Cc1ccc2occ(-c3cc(-c4ccccc4)nc4c3COc3ccccc3-4)c(=O)c2c1
#80 CCCS(=O)(=O)c1c(S(=O)(=O)CCC)c2cc(C(C)(C)C)ccn2c1C(=O)c1ccc(OC)c(OC)c1
#81 CCCN(CCC)CCCNC(=O)C1CCCN(Cc2nc(-c3ccc(Cl)cc3)oc2C)C1 (configuration not stated)
#82 CC(=O)c1c(C)oc2c1cc(NS(=O)(=O)c1c(C)cc(C)cc1C)c1ccccc12
#83 CCOc1ccc(C2c3c(-c4ccccc4O)n[nH]c3C(=O)N2Cc2ccncc2)cc1 (configuration not stated)
#84 O=C(Nc1ccc(O)c(-c2nc3ccccc3o2)c1)c1ccc(-c2cccc(Cl)c2)o1

screen / no.	79	80	81	82	83	84
PV pol inh	107	107	106	105	109	107
PV pol inh intensity	109	99	102	110	104	111

Three compounds drawn at random from the list so far, as already listed:
#74 Cc1ccc(C)c(N2CCN(S(=O)(=O)c3cc(-c4cc(C)no4)ccc3C)CC2)c1
#27 CCn1cc2nc(SCc3ccccc3Cl)n(CCc3ccccc3)c(=O)c2n1
#2 Cn1c(=O)c2c(c3ccccc31)OC(=O)CC2c1ccc(C(F)(F)F)cc1 (configuration not stated)

screen / no.	74	27	2
PV pol inh	103	101	105
PV pol inh intensity	107	104	104

Later entries:
#85 Cc1nc2cc(-c3cccc(F)c3)nn2c(C)c1CCC(=O)NC(C)c1ccccc1 (configuration not stated)
#86 CCOc1ccc(CNC(=O)c2cnc(SC)nc2C)cc1
#87 O=C(c1ccc(F)cc1)c1cn(Cc2ccccc2)c2cc3c(cc2c1=O)OCO3
#88 O=C(Nc1sc2c(c1C(=O)Nc1ccccc1Cl)CCCC2)c1ccccc1F
#89 COc1ccc(S(=O)(=O)N(CC(=O)N2CCC(C)CC2)c2ccc(C)cc2)cc1
#90 COc1ccc(NC(=O)c2c(NCc3cccs3)sc3c2CCCC3)cc1

screen / no.	85	86	87	88	89	90
PV pol inh	104	114	101	107	102	104
PV pol inh intensity	104	118	105	111	106	112

#91 CCc1ccccc1NC(=O)N1CCc2cc(OC)c(OC)cc2C1CC(=O)OC (configuration not stated)
#92 Cc1ccc(-c2nn(CC(=O)NC3CCCCC3)c3c2cnc2ccc(F)cc23)cc1C
#93 O=C(CCS(=O)(=O)c1nc(-c2ccc3c(c2)OCO3)cc(C(F)(F)F)n1)Nc1ccc(F)cc1F
#94 Cc1ccc2onc(CC(=O)N3CCN(c4ccccc4)CC3)c2c1
#95 Cc1oc(-c2ccc(C(=O)NCc3ccccc3F)cc2)nc1COc1ccccc1
#96 CC(C)Oc1cccc(C(=O)Nc2ccc3oc(-c4cccc(Cl)c4)nc3c2)c1

screen / no.	91	92	93	94	95	96
PV pol inh	99	101	99	101	112	106
PV pol inh intensity	94	106	105	104	113	106

#97 CCOc1ccc(S(=O)(=O)Nc2ccc3c(c2)N(C(C)=O)CCC3)cc1
#98 COc1cc(C(=O)Nc2ccc(NC(=O)c3ccc(Br)cc3)cc2)cc(OC)c1OC
#99 Cc1nc2ccn(Cc3ccco3)c(=O)c2cc1C(=O)NCc1ccc(Cl)cc1
#100 Cn1ncc2nc(SCC(=O)Nc3ccc(Br)cc3F)n(Cc3ccccc3)c(=O)c21
#101 Cc1ccc(-c2c3c(=O)n(C)c(=O)n(C)c3c3n2-c2ccccc2NC3c2ccc(C)cc2O)cc1 (configuration not stated)

screen / no.	97	98	99	100	101
PV pol inh	103	109	107	104	102
PV pol inh intensity	108	113	108	108	95

A portion of the library (hit frequency here may not be typical).
